# High-throughput results (PubChem)
# Six1-Eya2 blk: qHTS Assay for Inhibitors of the Six1/Eya2 Interaction; hit rate 0.56% among 360,000; activity change, % (test concentration not listed); Homeobox protein SIX1 (Homo sapiens) + Protein phosphatase EYA2 (Homo sapiens), …; AlphaScreen GST-Six1/His-Eya2 binding, biochemical; active compounds read low; control for the full effect not named in the record; in the data active = activity change below about -65%; inconclusive = about -30% to -65%; inactive = above about -30%; note: % is set by controls: 0 for no effect and ±100 for the full control effect
#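 Six1/Eya2 binding was read as AlphaScreen signal after compounds were pinned into GST-Six1 plus His-tagged Eya2 (5X stock 250/500 nM) in pH 8.0 Tris/NaCl/TCEP buffer, beads added, then incubated 1 h, 37 C, dark.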
# D2 PAM: Beta-Arrestin HTS for Positive Allosteric Modulators of the Human D2 Dopamine Receptor: Potentiators; D(2) dopamine receptor (Homo sapiens), P14416; DiscoveRx D2 beta-arrestin cells, luminescence, 90 min; 100% = 57 uM dopamine signal; potentiation, % (test concentration not listed); hit rate 0.23% among 360,000; active = potentiation of 50% or more; inconclusive = 30% to 50%; inactive = 30% or less;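 note: compound concentration not given in the record; tested on top of an EC20 dose of dopamine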
# Target sequence (P14416 whole entry, looked up): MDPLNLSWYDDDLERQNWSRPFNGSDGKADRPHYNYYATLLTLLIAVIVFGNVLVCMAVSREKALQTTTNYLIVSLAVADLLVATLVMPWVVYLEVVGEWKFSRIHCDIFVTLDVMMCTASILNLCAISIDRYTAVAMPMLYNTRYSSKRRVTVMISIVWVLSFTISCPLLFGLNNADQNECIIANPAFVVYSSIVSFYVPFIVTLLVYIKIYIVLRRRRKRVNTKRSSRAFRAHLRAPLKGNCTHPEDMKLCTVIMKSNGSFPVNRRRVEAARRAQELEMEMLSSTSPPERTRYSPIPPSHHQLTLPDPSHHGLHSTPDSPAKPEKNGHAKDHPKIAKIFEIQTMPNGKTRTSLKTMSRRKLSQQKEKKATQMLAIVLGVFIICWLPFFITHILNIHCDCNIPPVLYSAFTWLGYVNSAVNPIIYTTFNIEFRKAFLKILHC
#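 D2 cells co-treated with compound plus 50 nM dopamine (EC20) for 90 min at 37 deg C to detect potentiation. Beta-arrestin recruitment was read as enzyme-fragment luminescence after 1 h at ambient temperature. Full response was set by 57 uM dopamine.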
# gsp antag: qHTS for Antagonists of gsp, the Etiologic Mutation Responsible for Fibrous Dysplasia/McCune-Albright Syndrome: qHTS. gsp-mutant cells, cAMP HTRF, 30 min; control for the full effect not named in the record. Potency, µM (highest dose often 76.9 µM), inactives show at the top dose activity change, negative = inhibition, actives largely listed as inhibitors. hit rate 0.4% among 340,000; active = falling curve of any shape with a large fitted effect; inconclusive = falling curve, mostly with a smaller effect; inactive = flat or rising curve; cell line not stated here;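 note: intracellular cAMP measured with PDE inhibitor Ro 20-1724 present during compound exposure; potency is the fitted concentration of half-maximal effect; % is set by controls: 0 for no effect and ±100 for the full control effect; nearly all actives have a fitted effect of over 65% in size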
#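 G418-selected cells were plated in DMEM/10% FBS for 16-24 h at 37C, then treated with compounds plus the PDE inhibitor […] (300 uM solution added) for 30 min at 37C. Intracellular cAMP was measured by HTRF after 30 min lysis at room temperature.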
# D2 ag: Beta-Arrestin HTS for Positive Allosteric Modulators of the Human D2 Dopamine Receptor: Agonists. D(2) dopamine receptor (Homo sapiens), P14416. hit rate 0.084% among 360,000. activation, % (test concentration not listed). AID 624465, 2012. DiscoveRx PathHunter D2 beta-arrestin, luminescence, 90 min; 100% = 57 uM dopamine signal; in the data active = activation above about 40%; inconclusive = about 15% to 40%; inactive = below about 15%; note: compound concentration not given in the record; the text of the record calls up to 30% inactive
#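 DiscoveRx PathHunter D2 beta-arrestin cells (2,100/well) attached overnight, then compound-stimulated 90 min at 37 C in HBSS/10 mM HEPES/0.1% Tween-20 buffer; beta-galactosidase complementation read by luminescence after 1 h at ambient temperature. Dopamine 57 uM final (EC100) as control.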
# gsp ag: qHTS for Agonist of gsp, the Etiologic Mutation Responsible for Fibrous Dysplasia/McCune-Albright Syndrome: qHTS | gsp mutant cells, cAMP HTRF, 30 min; control for the full effect not named in the record | Potency, µM (series often up to 76.9 µM), without a hit: top-dose activation (cAMP increase), actives largely listed as activators | hit rate 0.13% among 340,000; active = well fitted activation curve with a large enough effect; inconclusive = small, poorly fitted or top-dose-only effect, or another doubt; inactive = no such curve, though single readings can be large or run the other way; cell line not stated here;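 note: phosphodiesterase inhibitor Ro 20-1724 added with compounds to block cAMP breakdown; potency is the fitted concentration of half-maximal effect; nearly all actives have a fitted effect of over 60% in size; about a fifth of the inactives were tested at one dose only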
#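 Cells in DMEM/10% FBS with G418 were pretreated with compounds in DMSO plus […] (300 uM stock) for 30 min at 37C. cAMP was measured by HTRF (cAMP-d2 plus anti-cAMP antibody-K) after 30 min at room temperature.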
# CtBP-E1A inh: qHTS Assay for Inhibitors of the CtBP/E1A Interaction. hit rate 0.49% among 340,000. activity change, % (no concentration beside the values). AlphaScreen GST-E1A/His-CtBP binding, 1536-well; active compounds read low; control for the full effect not named in the record. CtBP / adenovirus E1A interaction (AlphaScreen); in the data active means activity change below about -65%; inconclusive means about -30% to -65%; inactive means above about -30%; note: % is set by controls: 0 for no effect and ±100 for the full control effect
#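 Steps: dispense buffer (Tris pH 8.0, NaCl 300 mM, TCEP 1 mM, BSA, Tween 20); add 5X protein mix (GST-E1A, His-CtBP, 125 nM each); pin 23 nL compound; 2 h at 37 °C, dark; add 5X beads (50 ug/mL); 1 h; read.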
# Starred values were filed as active, the others as inactive; ? = inconclusive; . = not tested or not shown; [ ] = remark or other dose. This is a random part of the collection. Share with any hit: about 1.4%.
No.	Structure	Six1-Eya2 blk	gsp antag	D2 ag	gsp ag	D2 PAM	CtBP-E1A inh
1	c1ccc(-c2ccc3nncn3c2)cc1	-3	.	-5.4	.	-4	5
2	COc1ccc(S(=O)(=O)Nc2cccc(C(C)=O)c2)cc1Br	5	.	-1.9	-9%[15.4 µM]	-4	15
3	COC(=O)CCP(=O)(O)Cc1ccccc1CP(=O)(O)CCC(=O)OC	0	2%	-2.0	-7%	24	6
4	O=C(Nc1ccc(-n2cnnn2)cc1)C1CCCN1C(=O)Nc1ccc(Br)cc1 (stereo not given)	7	-38%	5.4	11%[15.4 µM]	-9	0
5	CCCCCn1c(N)c(-c2nc3ccccc3s2)c2c([N+](=O)[O-])nn(C)c(=O)c21	-2	9%	-1.3	-12%	-3	6
6	O=C(NCCO)/C(=C/c1cccc([N+](=O)[O-])c1)NC(=O)c1ccco1	6	8%	-0.7	8%[15.4 µM]	-5	15
7	COC(=O)[C@H](CC(C)C)NS(=O)(=O)c1ccc(F)cc1Br	7	.	-8.6	5%	4	0
8	COc1ccc(-c2nc3ccc(N4CCN(C)CC4)cc3c(=O)[nH]2)cc1	5	-16%	4.4	-13%[15.4 µM]	-3	.
9	CCOC(=O)C1CCN(C(=O)c2ccc(OCC(=O)Nc3cccc(C(F)(F)F)c3)cc2)CC1	8	-27%	-4.1	-2%[15.4 µM]	3	-2
10	CCN(CC)CCn1c2c(c(SCC(=O)Nc3cccc(C(C)=O)c3)nc1=O)CCCC2	-2	-4%	-6.5	-73%[inhibitor]	-30	13

# In the list so far, 2 have an aryl methoxy group:
No.	Structure	Six1-Eya2 blk	gsp antag	D2 ag	gsp ag	D2 PAM	CtBP-E1A inh
2	COc1ccc(S(=O)(=O)Nc2cccc(C(C)=O)c2)cc1Br	5	.	-1.9	-9%[15.4 µM]	-4	15
8	COc1ccc(-c2nc3ccc(N4CCN(C)CC4)cc3c(=O)[nH]2)cc1	5	-16%	4.4	-13%[15.4 µM]	-3	.

# The results go on.
No.	Structure	Six1-Eya2 blk	gsp antag	D2 ag	gsp ag	D2 PAM	CtBP-E1A inh
11	CSC1=N/C(=C\c2ccccc2C)C(=O)S1	3	3%	-3.3	-8%	1	1
12	O=C(N=Nc1c(O)[nH]c2ccccc12)c1cccc(S(=O)(=O)Nc2ccccc2Cl)c1	-11	55%[activator]	-2.8	-17%	-8	.
13	CCCCN1C(=N)N([C@@H](C)CN2CCC[C@H]2CN2C(N)=NC[C@@H]2Cc2ccccc2)C[C@H]1Cc1ccccc1	-12	3%	0.9	.	-51	2
14	CC(C)C(=O)Nc1ccc(S(=O)(=O)Nc2nccc(/C=C/c3ccccc3)n2)cc1	-15	3%	-4.5	-7%[15.4 µM]	-9	-8
15	O=C(CCl)N=c1sccn1Cc1cccc2ccccc12	5	-25%	0.1	16%	-5	8
16	COc1ccc(NC(=O)CN2C(=O)NC(C)(C3CC3)C2=O)c(OC)c1 (stereo not given)	3	5%	-1.7	?	-2	.
17	CC1CC(C)CN(c2ccc(NS(=O)(=O)c3ccccc3)cc2C(=O)O)C1 (stereo not given)	6	-18%	-1.9	14%	2	1
18	Cn1c(SCc2cccc3ccccc23)nnc1-c1ccco1	-15	-10%	-1.9	-13%	-2	-6
19	CCOC(=O)N1CCN(C(=O)c2ccc3ccccc3c2)CC1	1	3%	-4.1	-1%[15.4 µM]	3	-9
20	COC(=O)C1=C(C)N(c2cccc(Cl)c2)C(=O)C1	3	-18%	-1.4	-17%	-8	0
21	O=c1c2ccccc2c(/C=N/c2n[nH]c(CCCO)n2)c(O)n1-c1ccccc1Cl	-5	7%	-5.7	2%	-2	-9
22	CCOc1ncccc1C(=O)NCC1COc2ccccc2O1 (stereo not given)	0	24%	-2.8	-3%	-5	13
23	Cn1c(/C(C#N)=C(\O)c2ccc([N+](=O)[O-])cc2)nc2ccccc21	-7	-1%	-0.8	13%	-10	.
24	CCOc1ccc(NC(=O)CN(C)S(=O)(=O)c2ccc3c(c2)CCC(=O)N3)cc1	1	11%	1.0	?	2	0
25	CCc1ccc(NC(=O)C(=O)NCC2CCCN2S(=O)(=O)c2ccccc2)cc1 (stereo not given)	-1	-5%	0.2	-15%	18	10
26	N#CC1=C(N)n2c(s/c(=C\c3cccs3)c2=O)=C(C#N)C1c1cccs1 (stereo not given)	?	-16%	-2.8	18%	-7	-29
27	N#Cc1cccc(NC(=O)COC(=O)c2cccc(N3C(=O)c4ccccc4C3=O)c2)c1	-3	-6%	-0.3	?	-24	-5
28	O=C(Cn1ccc(NC(=O)OCc2ccccc2)nc1=O)NCc1ccc2[nH]ccc2c1	6	2%	-1.9	.	-11	1
29	O=C(C1CC1)N1N=C(c2ccncc2)CC1(O)C(F)(F)F (stereo not given)	4	-1%	4.1	-20%	-1	2
30	CCCn1c(SCC(=O)NC)nnc1C(C)C	4	8%	-4.5	4%	-6	4
31	COC(=O)c1cc2n3ccccc3c(C)c(-c3ccccc3)c-2c1C(=O)OC	-29	3%	-2.1	?	-13	?
32	c1ccc2c(c1)CC1(CCCCC1)n1nnnc1-2	5	-20%	1.4	3%	-6	2
33	COc1ccc(Oc2ccc(C(F)(F)F)cc2NC(=O)CC(CC(=O)O)c2ccccc2)cc1 (stereo not given)	-4	-14%	4.1	0%	-5	-5
34	COc1ccc(C(=O)N2CC(=O)Nc3ccc(F)cc3C2c2ccccc2)cc1 (stereo not given)	3	-7%	-7.5	-27%	-23	3
35	O=C(O)Cc1ccc(NS(=O)(=O)c2ccc3c(c2)OCCO3)cc1	5	.	-1.8	-43%	-2	7
36	Cc1ccc(-n2ncc3c(=O)n(CC(=O)NC4CCCCC4)cnc32)cc1	-3	-2%	-3.3	27%	10	3
37	c1ccc(COn2nnc3ccccc32)c(COn2nnc3ccccc32)c1	-2	-32%	-2.1	-12%	-9	8
38	Cc1noc(C)c1COC(=O)c1cc2c(C)nn(-c3ccc(F)cc3)c2s1	5	-4%	0.7	-2%	2	2
39	CCOC(=O)C1=C(c2ccccc2)NC(SCC(=O)Nc2ccccc2C)=C(C#N)C1c1ccco1 (stereo not given)	?	-11%	-0.9	-15%	-5	-20
40	C=CCOc1ccc(/C=C/C(=O)OCC(=O)NCCc2ccccc2)cc1	1	-6%	-5.9	?	13	-1
41	CCOc1ccc(CCNC(=O)CS(=O)Cc2nc(-c3ccc(C)cc3)oc2C)cc1 (stereo not given)	-3	-14%	-2.6	-40%[inhibitor]	-2	-6
42	Cc1ccc(NC(=O)C2(C)CCCN(C(C)C)C2)cc1C (stereo not given)	2	.	-3.1	.	-10	2
43	Cc1cc(Nc2cccc(Cl)c2)nc(N2CCOCC2)n1	-8	-6%	2.1	-21%	-14	0
44	COc1ccc(CNc2cccc3[nH]c(C(F)(F)F)nc23)cc1	16	-4%	2.9	-11%	8	-6
45	COc1ccc(Cl)cc1-n1c(=S)sc2c(=O)[nH]c(SCC(=O)NCCC(C)C)nc21	-8	0%	-3.4	-7%	-6	-6
46	Cc1ccc(/C=N/NC(=O)CN2CCN(Cc3ccccc3Cl)CC2)o1	-7	-1%	-3.4	?	-12	-4
47	COc1ccccc1OCCC(=O)NCc1ccc2c(c1)OCO2	14	5%	-2.9	16%[15.4 µM]	-2	11
48	CC1CCCC(=NNC(=O)C2COc3ccccc3O2)C1 (stereo not given)	2	5%	5.7	?	-5	-6
49	COc1ccccc1NC(=O)CN(Cc1ccco1)C(=O)c1ccc(Cl)nc1	6	-3%	-5.0	2%	-3	-9
50	CC1CC(C)(C)n2c(O)c(N=NC(N)=S)c3cccc1c32 (stereo not given)	-9	-3%	-4.9	2%	-9	-9
51	Cc1ccc(CCNC(=O)C2CCN(C(=O)N(C)C)CC2)cc1	2	-8%	-1.9	-34%[inhibitor]	2	8
52	CN(C)c1ccc(/C=C/C=C2/SC(=S)N(c3ccccc3)C2=O)cc1	-69*	-10%	-1.6	-16%	-5	-66*
53	Cc1cc(C(C)(C)C)oc1C(=O)N(CC(=O)NC1CCCC1)Cc1ccccc1Cl	-6	4%	-1.5	2%	-14	5
54	O=C1CC(c2ccc(F)cc2)CC(O)=C1C1NCCc2ccccc21 (stereo not given)	-2	4%	-2.9	-20%	-9	1
55	O=C(NCC(c1cccs1)N1CCOCC1)c1cn(-c2ccccc2)nc1-c1ccc(F)cc1 (stereo not given)	7	-21%	-3.1	16%[15.4 µM]	-7	1
56	Cc1cc(C)n(/C(=C/N(C)C)C(=O)c2ccccc2)n1	-1	-1%	-7.1	23%	-2	9
57	Cc1cc(C)nc(SCc2ccc(F)cc2)n1	9	1%	-4.3	17%[15.4 µM]	-6	7
58	O=C(NS(=O)(=O)c1ccccc1)c1cccc(Br)c1	-3	-3%	-3.7	-8%	-8	-3
59	O=C(NNC(=S)NCC1CCCO1)c1cccc(S(=O)(=O)N2CCOCC2)c1 (stereo not given)	1	9%	-4.6	0%[15.4 µM]	-12	7
60	CCN1CCN(S(=O)(=O)c2ccc(F)c(C(=O)Nc3c(F)cc(F)cc3Br)c2)CC1	0	5%	-5.6	16%	-5	6

# (listing goes on)
No.	Structure	Six1-Eya2 blk	gsp antag	D2 ag	gsp ag	D2 PAM	CtBP-E1A inh
61	COC(=O)c1cc(=O)n(CCc2ccc(OC)c(OC)c2)c(=Nc2ccc(F)c(Cl)c2)s1	-1	-3%	-1.9	-1%	-3	0
62	CCSc1nnc(-c2ccccc2N)c(=O)[nH]1	-3	-6%	5.6	4%	1	1
63	Cc1c(CCC(=O)O)c(=O)oc2cc(OCc3ccccc3Br)ccc12	-6	-14%	-0.3	6%	-7	.
64	Cc1ccc(NC(=O)c2ccc(-n3cccn3)c([N+](=O)[O-])c2)cc1C	-4	-13%	-1.7	-20%	-13	-5
65	CCC(C)NC(=O)C(NS(=O)(=O)c1cccc2nsnc12)c1ccccc1 (stereo not given)	3	15%	-5.2	14%[15.4 µM]	5	3
66	CCCc1nc(SCC(=O)O)c2sc(=S)n(-c3ccccc3)c2n1	3	-32%	2.5	2%	-3	3
67	Cc1cccc(Nc2nnc(SCC(=O)c3ccc(O)cc3O)s2)c1	?	-22%	-6.5	1%[15.4 µM]	-20	0
68	COc1cc(-n2c(C)nc3cc(C(=O)NCc4ccco4)ccc32)cc(OC)c1OC	-25	6%[15.4 µM]	-1.4	-3%	-6	-13
69	COc1ccc(NC(=O)CN(C)C(=O)CCCNC(=O)c2ccc(Cl)cc2)cc1	-2	5%	3.4	-2%	?	-1
70	CCOc1ccc(-c2cc(C)n3nc(C(N)=O)cc3n2)cc1	?	6%	-3.4	1%	-8	?
